# Screening data (PubChem)
# MT1-MMP act inh – blocks activation of human MT1-MMP. GFP/RFP ratio change, % at 20 µM. HT1080 RFP-PRO-GFP cells, GFP/RFP ratio fluorescence, overnight; percent of plate control window, DMSO zero. P50281. hit rate 0.061% among 360,000. AID 651647;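 active = GFP/RFP ratio change of at least 30% with cell ATP level not reduced by more than half and red fluorescence within 50% of control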; note: strong numbers were not always called active
#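 Assay system: HT1080 RFP-PRO-GFP cells | Dosing: 20 µM single dose, 1% DMSO | Incubation: Cells overnight before dosing, compound overnight, 37 °C, 5% CO2 | Evaluation: GFP/RFP fluorescence ratio | Control set: DMSO-only wells and HT1080 RFP-L50D-GFP cell wells as references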
# Yeast UUG start – alters start codon recognition fidelity in yeast; S. cerevisiae UUG-firefly luciferase reporter, luminescence/redox ratio; activity score, % at 18.7 µM; hit rate 0.13% among 350,000; AID 602363;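 active = replicate mean at a twofold rise or more, about +100% in these data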;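 note: firefly luciferase made from a UUG start codon reports start codon fidelity; reporter light over untreated wells divided by growth signal over untreated wells; some hits fall short of that in this replicate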
# eIF4H inh – inhibitors of RNA binding by human eIF4H. AID 2012. eIF4H fluorescence polarization binding assay. hit rate 0.94% among 290,000. Q15056. inhibition, % at 35 µM;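 active = 50% or more with normal probe brightness, or confirmed in later tests; inconclusive = above 50% with abnormal brightness, or retests that disagree; inactive = below 50% or failed in later tests; about a fifth of its hits are not listed in these tables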;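 note: calls also rest on retests at 20 µM and on dose response follow-up; 0% = protein and probe with vehicle and 100% = probe without protein; strong numbers were not always called active; many hits fall short of the cut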
# PABP FP inh – blocks human PABP binding to poly(A) RNA. P11940. fluorescence polarization. inhibition, % at 35 µM. hit rate 1% among 290,000;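 active = 50% or more with normal probe brightness, or confirmed in later tests; inconclusive = above 50% with abnormal brightness, or retests that disagree; inactive = below 50% or failed in later tests; about a fifth of its hits are not listed in these tables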;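 note: calls also rest on retests at 20 µM and on dose response follow-up; controls were probe without protein and protein plus probe with vehicle; some compounds called inactive have numbers as strong as hits; many hits fall short of the cut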
# Target sequence (P11940 whole entry, looked up): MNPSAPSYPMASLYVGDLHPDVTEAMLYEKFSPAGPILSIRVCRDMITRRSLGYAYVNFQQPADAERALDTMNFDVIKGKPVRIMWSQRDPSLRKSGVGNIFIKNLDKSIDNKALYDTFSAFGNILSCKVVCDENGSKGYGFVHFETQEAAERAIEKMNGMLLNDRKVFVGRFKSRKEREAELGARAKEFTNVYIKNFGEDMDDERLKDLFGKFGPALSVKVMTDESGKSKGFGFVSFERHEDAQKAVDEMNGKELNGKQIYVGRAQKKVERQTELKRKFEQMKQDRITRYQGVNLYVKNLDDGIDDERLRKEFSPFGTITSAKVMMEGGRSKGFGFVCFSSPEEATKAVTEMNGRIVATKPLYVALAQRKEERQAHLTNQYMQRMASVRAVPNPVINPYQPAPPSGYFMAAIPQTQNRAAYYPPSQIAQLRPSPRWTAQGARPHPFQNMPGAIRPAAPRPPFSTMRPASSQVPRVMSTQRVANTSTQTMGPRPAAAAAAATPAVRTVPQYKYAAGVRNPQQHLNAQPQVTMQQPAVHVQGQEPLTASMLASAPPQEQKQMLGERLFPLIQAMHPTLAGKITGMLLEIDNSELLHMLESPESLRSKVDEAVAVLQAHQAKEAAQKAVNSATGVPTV
# Rce1 inhib – inhibitors of yeast Ras-converting enzyme; Q03530; yeast membranes, quenched prenylated peptide cleavage fluorescence; calls only; hit rate 0.27% among 290,000;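 active = fall in fluorescence gain of 50% or more versus controls, with final raw signal at or below 3038400; inconclusive = same 50% fall but final raw signal above 3038400; inactive = fall in fluorescence gain under 50%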;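 note: plate controls were neutral control wells for no effect and wells lacking membranes for full effect; tested at 10 µM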
# Target sequence (Q03530 whole entry, looked up): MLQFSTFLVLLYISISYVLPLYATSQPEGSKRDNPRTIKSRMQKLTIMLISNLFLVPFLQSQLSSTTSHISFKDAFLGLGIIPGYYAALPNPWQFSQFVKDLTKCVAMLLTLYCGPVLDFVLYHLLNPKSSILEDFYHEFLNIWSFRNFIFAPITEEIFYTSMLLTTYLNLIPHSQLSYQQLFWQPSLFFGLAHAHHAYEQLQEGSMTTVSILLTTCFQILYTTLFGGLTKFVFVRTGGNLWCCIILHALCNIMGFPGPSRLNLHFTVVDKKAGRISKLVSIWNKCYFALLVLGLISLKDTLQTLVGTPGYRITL
# CSC inhib – blocks cancer stem cells; AID 2717; inhibition, % at 7.5 µM; hit rate 1.1% among 300,000; cancer stem cell-like cells viability, luminescence;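 active = mean at 75% or more and at least half the replicates too; inconclusive = mean and replicates disagree; tested in HMLE shEcad cells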;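 note: 0% = median of negative and 100% = median of positive control wells; the first replicate is given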
# HIV Env fusion – HIV envelope-mediated fusion inhibition; hit rate 1.1% among 360,000; AID 651610; HeLa-JRFL Env/CEM21 cell fusion, luciferase; inhibition, % at 12.3 µM;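 active = mean replicate inhibition score of at least 50 and every replicate individually at or above 50; inconclusive = only one of the two criteria met; inactive = mean below 50 and not all replicates reaching 50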;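 note: 0% = plate neutral controls and 100% = maraviroc near 300 nM; one replicate is shown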
# eIF4H inh retest – also measured in eIF4H inh; calls as there; inhibition, %; compound at 20 µM; confirmation average;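 mean of two retest wells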
# PABP FP inh retest – second read-out of PABP FP inh, no call of its own (marks repeat the call); inhibition, %; compound at 20 µM; confirmation repeats;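 mean of two retest wells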
# MT1-MMP act inh RFP – recorded beside MT1-MMP act inh, whose call it bears; RFP signal change, %; measured here: RFP expression control read;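 0 = vehicle wells; hits needed this value within 50% of zero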
# Starred values were filed as active, the others as inactive; i = inactive; ? = inconclusive; / = not tested or not shown; & = joins results of further samples. Only part of the results is shown; rates above refer to the full screens.
SMILES,MT1-MMP act inh,MT1-MMP act inh RFP,Yeast UUG start,eIF4H inh,PABP FP inh,Rce1 inhib,CSC inhib,HIV Env fusion,others
CCNC(=O)C1(C)CCCN1C(=O)c1cc(OC)c(OC)c(OC)c1 (stereo not drawn),7,6,-12,/,/,/,/,-4,
CCS(=O)(=O)c1ccc2oc(SCC(=O)NCCC3=CCCCC3)nc2c1,5,-13,-13,6,-14,i,0,/,
CCOC(=O)C1CCN(C(=O)c2cc3ccc(OC)cc3[nH]2)CC1,0,1,-9,-7,1,i,-3,-25,
Cc1cc(S(=O)(=O)N2CCOCC2)ccc1NC(=O)c1ccc(F)cc1,2,-4,2,1,3,i,-9,9,
Cc1nc2ccccc2n1C(=O)c1ccc(Cl)cc1[N+](=O)[O-],-4,2,/,-2,-13,i,/,10,
COc1ccc(CN2C[C@@H](CO)O[C@@H](n3cnc4c(N5CCN(CCO)CC5)ncnc43)C2)cc1,2,1,-3,/,/,/,/,-3,
Cc1cccc(N(Cc2ccccc2)C(=O)CCl)c1,-12,-27,/,4,0,i,/,25,
Cc1cccc(N2CC(C)Cn3c2nc2c3c(=O)n(CC(=O)OCc3ccccc3)c(=O)n2C)c1 (stereo not drawn),-4,-1,-11,-2,5,i,38,/,
Cc1cc(-c2cccs2)c(C#N)c(=S)[nH]1,-7,0,-18,-5,3,i,-10,1,
Cn1c(=O)c2c([nH]c(OCc3ccc(Cl)cc3Cl)[n+]2Cc2ccc(F)cc2)n(C)c1=O,-6,-15,/,8,-3,i,2,-4,
O=[N+]([O-])c1cc(Cl)ccc1-c1nc(-c2ccncc2)no1,2,-1,/,-2,-6,i,-12,-41,
O=C(O)C1CSC2(c3ccc4c(c3)OCCO4)CCC(=O)N12 (stereo not drawn),-3,-4,7,-1,-5,i,-8,/,
O=[N+]([O-])c1ccc(NNC(=S)Nc2ccc(F)cc2)cc1,3,-7,-24,-6,-5,i,21,/,
Cc1noc(NS(=O)(=O)c2ccc(NC(=O)c3ccc(N4C(=O)c5ccccc5C4=O)cc3)cc2)c1C,13,8,/,-1,7,i,-8,8,
COc1ccc(C2(C(=O)Nc3ccc(C(=O)N4CCOCC4)cc3)CCOCC2)cc1,-4,5,3,-5,-5,i,3,/,
CCOC(=O)c1ccc(NC(=S)NCCc2ccc(F)cc2)cc1,7,3,/,-16,-9,i,17,-18,
Cc1cc(C)nc(NC(=O)Nc2ccc(F)cc2F)n1,0,0,-10,-5,0,i,-8,-22,
OCC[C@H]1C[C@H](O)[C@@H](O)[C@@]2(CCCc3ccccc3O2)O1,1,3,-25,/,/,/,-11,-8,
COc1ccc(CNS(=O)(=O)CCNCCc2ccccc2)cc1,1,2,-17,/,/,/,/,-7,
O=C(CCNC(=O)c1ccccc1Cl)NN1C(=O)NC2(CCCCC2)C1=O,2,0,4,/,/,i,1,-9,
O=C(COC(=O)C1=COCCO1)NCc1ccc(Cl)cc1Cl,2,6,-17,/,/,/,/,-7,
COc1ccc(/C=C(\C#N)C(=O)OC2CCOC2=O)cc1 (stereo not drawn),1,3,-13,6,1,i,-10,2,
COCCNC(=S)N1CCC(C(=O)c2ccc(F)cc2)CC1,7,-7,-16,/,/,/,/,-1,
CC(N)c1csc(Nc2ccc(C(=O)NCCCO)cn2)n1 (stereo not drawn),1,6,-22,/,/,/,/,5,
O=C(CCNC(=O)c1ccccc1)Nc1cccnc1,1,0,-20,3,5,i,-20,14,
CC1(C)CC(=O)C=C(Nc2ccc(S(N)(=O)=O)cc2)C1,-3,2,-22,-8,-3,i,-11,/,
CCOC(=O)C1CCCN(C(=O)c2cc(-c3ccc(F)cc3)nc3ccccc23)C1 (stereo not drawn),8,2,-9,4,15,i,-12,2,
CNc1csc(C)c(C)c1=O,6,7,-15,4,8,i,-8,-6,
CCOC(=O)c1cncc(C#CCO)c1,-2,0,/,-1,9,i,-5,11,
Cc1ccc2c(c1)sc(=NC(=O)C1CC1)n2C,0,1,-21,-2,13,i,-7,-89,
CSc1ccc(CNC(=O)C2CCC(=O)N(CCc3cccc(F)c3)C2)cc1 (stereo not drawn),3,1,-15,-2,-8,i,2,2,
CC(=O)N1CCC(N(CCN2CCOCC2)C(=S)Nc2cccc(C)c2C)CC1,4,4,-24,-1,-4,i,-15,-5,
CCCCCC(=O)N/N=C/c1ccco1,1,7,/,0,-3,i,-8,27,
Cc1nc2cc(-c3ccc(Cl)cc3)nn2c(C)c1CCC(=O)NCc1ccco1,1,-2,-7,-5,-4,i,-1,2,
CCN1C=C(C(=O)OC)C(c2cccc(OC)c2OC)C(C(=O)OC)=C1,1,2,/,40,-2,i,5,-9,
Cc1ccccc1NC(=S)N(CCN(C)C)C(C)c1ccco1 (stereo not drawn),1,4,/,4,2,i,-18,11,
O=C1CN(Cc2cc(=O)oc3cc4c(cc23)CCC4)CCN1,1,4,-34,2,-4,i,-9,-14,
CC(=O)C1=C(O)C(=O)N(C2CCCCC2)C1c1ccccc1 (stereo not drawn),-5,2,-14,-4,2,i,12,/,
CN(C)CCN1C(=O)C(O)=C(C(=O)c2cc3ccccc3o2)C1c1ccc(N(C)C)cc1 (stereo not drawn),-3,6,-6,30,-25,i,-9,-10,
CC1CCCCC1NC(=O)C1CCN(S(=O)(=O)N2CCC3(CC2)OCCO3)CC1 (stereo not drawn),0,-1,-9,-9,-2,i,-4,/,
CCOC(=O)c1c(-c2ccccc2)csc1NC(=O)COc1ccc2c(C)cc(=O)oc2c1,0,0,/,1,1,i,7,14,
COc1cc(C=C2C(=O)c3ccccc3C2=O)ccc1O,-33,5,3,-14,-5,i,8,-7,
CCN(CC)c1ccc(C(=O)OCc2cc(=O)oc3cc(O)ccc23)cc1,-1,2,-2,-10,-2,i,84*,/,
N/C(=N/OS(=O)(=O)c1ccc([N+](=O)[O-])cc1)c1ccncc1,2,6,1,-1,-11,i,-5,3,
COC(=O)C1=C(Nc2cc(Cl)cc(Cl)c2)CSC1,0,-2,-20,-9,-1,i,-2,1,
CCc1nnc(NC(=O)CSc2nnc(Cc3cccn3C)n2CCOC)s1,-1,9,-12,0,-5,i,2,-46,
Cc1ccc(S(=O)(=O)N2CC=C(C(=O)NCc3ccc(F)cc3)CC2)cc1,2,1,-7,-2,15,i,6,-17,
O=C(CCN1C(=O)/C(=C/C=C/c2ccccc2)SC1=S)Nc1nc2ccccc2s1,2,-1,/,0,-4,/,5,-101,
Cc1cc(NS(=O)(=O)c2ccc(NC(=O)NC(C)(C(F)(F)F)C(F)(F)F)cc2)no1,2,2,-11,-1,2,i,-7,-12,
O=C(CSc1ccccc1C(=O)O)NC12CC3CC(CC(C3)C1)C2,8,3,-1,2,-3,i,-13,13,
COc1ccc(OC)c(NC(=O)CSc2nnc(-c3cccnc3)s2)c1,1,-3,-13,0,-12,i,-21,3,
O=C(N/N=C1\NC(=O)C(CO)(CO)S1)c1ccccc1,-3,-2,/,9,0,i,0,2,
Cc1ccc2nc(-c3cccc(-c4cccc(Cl)c4)c3)c(NCc3ccccc3)n2c1,13,-7,-15,/,/,i,?,-30,
Oc1ccc(-c2cn3c(n2)SCC3)cc1O,2,-2,-16,46,8,i,/,-32,
C(=N\n1c2ccccc2c2ccccc21)/c1ccccc1,-4,2,/,-7,2,i,44,10,
C/C(Cl)=C\Cn1c(NCCCn2ccnc2)nc2c1c(=O)n(C)c(=O)n2C,0,1,/,-2,5,i,-17,/,
CCOC(=O)C1=C[C@@H](CC)N(S(=O)(=O)c2ccc([N+](=O)[O-])cc2)[C@H]1c1ccccc1,1,-7,-9,/,/,/,/,-15,
CC(C)CNc1nc2c(c(=O)n(C)c(=O)n2C)n1Cc1cccc(Br)c1,2,-5,-16,-7,-10,i,-19,/,
Cc1c(C(=O)N2CCCCC2)c(S(=O)(=O)Nc2cccc(Br)c2)c(C)n1C,1,-2,17,6,6,i,-12,20,
COc1ccc(-c2cc(C(=O)NCc3cccs3)no2)cc1,-1,-1,/,-1,-14,i,-9,-11,

# The list goes on; the last 3 above are carried over.
SMILES,MT1-MMP act inh,MT1-MMP act inh RFP,Yeast UUG start,eIF4H inh,PABP FP inh,Rce1 inhib,CSC inhib,HIV Env fusion,others
CC(C)CNc1nc2c(c(=O)n(C)c(=O)n2C)n1Cc1cccc(Br)c1,2,-5,-16,-7,-10,i,-19,/,
Cc1c(C(=O)N2CCCCC2)c(S(=O)(=O)Nc2cccc(Br)c2)c(C)n1C,1,-2,17,6,6,i,-12,20,
COc1ccc(-c2cc(C(=O)NCc3cccs3)no2)cc1,-1,-1,/,-1,-14,i,-9,-11,
O=c1c(Br)c(N2CCOCC2)cnn1-c1ccccc1,2,3,/,-3,-10,i,-18,-32,
CC(O)(c1cccnc1)c1nc(-c2cccc(F)c2)cs1 (stereo not drawn),-3,-5,-17,/,/,/,/,3,
CCOc1ccc(C=O)cc1CN1CCCCC1,5,3,0,-5,16,i,-16,/,
CN(CC(=O)NCCc1ccccc1)S(=O)(=O)c1cccs1,-2,2,-3,2,-5,i,9,/,
CCOC(=S)SCC(=O)N1CCc2cc(OC)c(OC)cc2C1C1C(=O)CC(C)(C)CC1=O (stereo not drawn),2,2,/,8,-4,i,-5,1,
O=C(NCc1cccnc1)c1cc(C2CCCN(C(=O)c3cccs3)C2)on1 (stereo not drawn),-7,-4,7,/,/,/,/,-15,
CCC(CC)NC(=O)Nc1ccccc1C(F)(F)F,12,5,-12,8,0,i,0,1,
O=C(O)Cn1ncc2ccccc2c1=O,-3,1,/,-9,-4,i,5,3,
CCN(CC)S(=O)(=O)c1cccc(C(=O)N/N=C2\CCCC(=O)C2)c1,5,9,/,55,25*,i,-20,2,eIF4H inh retest=45;PABP FP inh retest=53*
O=C(N/N=C/c1ccc2c(c1)OCO2)c1cc(-c2ccc(F)cc2)nc2ccccc12,-6,-14,-6,9,-4,i,55,-3,
CCCC(=O)Nc1ccc(Cl)c(NC(=O)c2cccc(OC)c2)c1,-2,-4,/,-16,0,/,-7,6,
Cc1ccc(Cn2ccc(NC(=O)c3cc4nc(-c5ccco5)cc(C(F)(F)F)n4n3)n2)cc1,2,7,-19,-8,-7,i,/,-21,
CCOc1ccc(CC2c3cc(OCC)c(OCC)cc3CCN2C(=O)CN2CCN(C)CC2)cc1OCC (stereo not drawn),5,3,-7&1,-3,5,i,5,4,
COc1ccc(C(=O)C2CCN(CC(=O)Nc3ccc(OC)cc3OC)CC2)cc1,0,0,3,-5,-7,i,22,24,
COc1ccc(C(C)NC(=O)C2CCCC2)cc1OC (stereo not drawn),0,-1,-12,-22,9,i,-4,-19,
COc1cc(OC)c(OC)cc1CN1CCCC(C(=O)N2CCCCC2)C1 (stereo not drawn),4,6,-14,-10,-4,i,-5,-53,
Cc1cccc(Nc2ccncc2S(N)(=O)=O)c1,2,0,-12,/,/,i,-9,10,
O=C(O)CCc1ccc(-c2ccc(F)cc2)n1CC1CCCO1 (stereo not drawn),-3,2,/,5,-2,i,3,-4,
O=S(=O)(c1ccc(OC(F)(F)F)cc1)N1CCCC(N2CCOCC2)C1 (stereo not drawn),-1,2,-6,-15,6,i,-1,-4,
CC1CCN(CCCCOc2ccccc2[N+](=O)[O-])CC1,0,3,/,1,-2,i,2,/,
